Source: PubChem (several laboratories)
Ecoli growth – E. coli growth inhibition | AID 1053175 | OD600 absorbance (concentration not given with the values) | Escherichia coli growth, OD600, 23 h; stronger effect = lower value | hit rate 0.21% among 330,000;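 active = OD600 absorbance below the run mean of sample wells minus 3.6 SD, in any replicate, cut at about 0.56 in these data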;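 also: stock transfer was 300 nL into about 60 µL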
UCH37 DUB inh – blocks the human deubiquitinase UCH37 | inhibition, % (test concentration not listed) | Q9Y5K5 | purified proteasome/UCH37, Ub-AMC cleavage fluorescence | hit rate 0.33% among 330,000;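 active = mean of two replicates above 20%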;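 also: 0% = compound-free wells with enzyme and 100% = wells lacking proteasome; stock transfer was 100 nL into about 20 µL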
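system = Proteasome-associated human UCH37 deubiquitinase | amount = 0.15 nM proteasome as dispensed | medium = pH 7.4 Tris-HCl (50 mM) with ovalbumin, ATP-MgCl2, DTT | incubation = 30 min preincubation with enzyme, 25 min cleavage at room temperature | detection = AMC fluorescence 355/460 nm | read-out basis = percent inhibition | controls = no-proteasome and no-compound wells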
Vif A3G – HIV-1 Vif–A3G interaction blockers – biochemical, TR-FRET, GST-Vif 1-94, biotin-A3G peptide, dose response retest, primary screen (AID 1117319) | hit rate 0.57% among 260,000 | inhibition, %, or IC50 in µM where a hit was titrated | TR-FRET GST-Vif / biotin-A3G peptide binding; higher % means a stronger effect; test concentration not given here; strong numbers were not always called active;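 active = above the screen mean plus three standard deviations and confirmed in dose response; inconclusive = results disagree or hit not tested in dose response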;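 also: Vif residues 1-94 fused to GST binding biotinylated APOBEC3G peptide 110-148; 0% = full assay without inhibitor and 100% = GST in place of GST-Vif; retest series ran down from 100 µM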
MLL AF4-AF9 inh – MLL-AF4/AF9 protein interaction inhibition. AID 651704. AlphaScreen, biotin-AF4 peptide binding to FLAG-AF9. P42568. hit rate 0.47% among 350,000. inhibition, % at 10 µM;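 active = every replicate reaching a set inhibition limit, whatever the replicate mean, cut at about 25% in these data; inconclusive = mean inhibition reaches that limit but some replicates miss it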;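 also: 0% = plate neutral control median and 100% = total signal loss; the record names both 10 and 1 µM as test concentration; the first replicate is given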
Target sequence (P42568 whole entry, looked up): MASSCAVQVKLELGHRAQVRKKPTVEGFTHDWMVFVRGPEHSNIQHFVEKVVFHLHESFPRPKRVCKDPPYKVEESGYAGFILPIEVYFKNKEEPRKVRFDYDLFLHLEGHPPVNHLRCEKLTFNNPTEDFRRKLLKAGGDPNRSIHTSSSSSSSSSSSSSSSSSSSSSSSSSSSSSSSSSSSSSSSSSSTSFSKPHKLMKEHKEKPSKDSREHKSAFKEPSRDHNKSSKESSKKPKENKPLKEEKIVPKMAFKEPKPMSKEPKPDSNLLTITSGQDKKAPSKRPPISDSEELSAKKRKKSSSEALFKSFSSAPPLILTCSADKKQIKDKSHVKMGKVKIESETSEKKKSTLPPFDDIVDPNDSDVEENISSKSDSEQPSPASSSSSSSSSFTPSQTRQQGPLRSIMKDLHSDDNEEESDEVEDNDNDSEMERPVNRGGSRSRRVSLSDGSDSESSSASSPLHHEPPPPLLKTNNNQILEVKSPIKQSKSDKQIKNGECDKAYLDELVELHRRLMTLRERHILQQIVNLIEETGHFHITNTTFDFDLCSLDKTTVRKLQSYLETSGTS
FGF22 binding – shifts melting point of recombinant human FGF22 | hit rate 1.5% among 340,000 | calls only at 9.99 µM | Q9HCT0 | recombinant FGF22 thermal shift, SYPRO orange fluorescence; percent of sucrose octasulfate shift, DMSO zero;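 active = melting point raised past a set limit in the mean and every replicate; inconclusive = no clear call; three in four hits are not shown here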
HNF4A DNA FP – change in binding of human HNF4 alpha to DNA. P41235. HNF4a-FITC DNA binding, fluorescence polarization, 1 h. activity change, % at 10 µM. hit rate 0.3% among 360,000. AID 1224865; in the data active = activity change above about 30%, passing the limit was not always enough;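 also: controls were the assay level and a saturating level of protein; the project sought stronger binding though the title names inhibitors; some compounds called inactive have numbers as strong as hits; positive values seem to mean higher polarization but the record does not say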
Target sequence (P41235 whole entry, looked up): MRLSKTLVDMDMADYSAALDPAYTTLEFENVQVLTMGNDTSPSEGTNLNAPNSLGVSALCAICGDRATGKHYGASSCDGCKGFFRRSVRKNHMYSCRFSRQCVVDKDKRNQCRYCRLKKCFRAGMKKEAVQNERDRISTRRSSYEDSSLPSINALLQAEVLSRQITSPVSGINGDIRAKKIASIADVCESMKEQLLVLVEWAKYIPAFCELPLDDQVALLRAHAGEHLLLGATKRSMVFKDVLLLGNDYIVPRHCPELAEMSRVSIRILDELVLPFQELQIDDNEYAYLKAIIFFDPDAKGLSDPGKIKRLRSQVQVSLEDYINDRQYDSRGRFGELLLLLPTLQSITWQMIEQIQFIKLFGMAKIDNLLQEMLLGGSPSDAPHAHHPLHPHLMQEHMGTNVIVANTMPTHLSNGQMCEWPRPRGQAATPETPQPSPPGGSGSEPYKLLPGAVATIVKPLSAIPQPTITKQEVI
RanGTP-Imp inh – disruptors of Ran-importin-beta complex formation – biochemical, FRET, CFP-Ran, YFP-importin-beta, homogeneous, primary screen; AID 2216; inhibition, % (concentration not given with the values); cell-free CFP-Ran/YFP-importin-beta FRET ratio; hit rate 1.1% among 300,000;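 active = most replicates above 15%; inconclusive = exactly half above 15%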;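 also: 0% = DMSO wells and 100% = Ran loaded with GDP instead of GTP; wells of about 40 µL received 100 nL stock; the first replicate is given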
An asterisk follows results filed as active; i = inactive; u = inconclusive; x = no result given; & = joins results of further samples. These rows are one share of the data; the hit share may differ from the screen's.

SMILES | Ecoli growth | UCH37 DUB inh | Vif A3G | MLL AF4-AF9 inh | FGF22 binding | HNF4A DNA FP | RanGTP-Imp inh
CCOC(=O)C1CCN(S(=O)(=O)Cc2ccc(Cl)cc2)CC1 | 0.64 | -0.2 | -3% | x | x | -0.3 | -2.0
CCC(NC(=O)c1ccc(C#CC2(O)CCCCC2)cc1)C(=O)O (stereo not drawn) | 0.68 | 2.9 | 1% | -0.5 | i | -1.6 | 1.6
Cc1ccsc1CNCC(O)c1ccccc1 (stereo not drawn) | 0.65 | 2.8 | x | -3.9 | i | 1.8 | 5.0
Cn1c(=O)c2c(nc(Br)n2CCSc2nnnn2-c2ccccc2)n(C)c1=O | 0.72 | 4.7 | 1% | x | x | -3.7 | -2.8
COCCNS(=O)(=O)c1cc(C(=O)O)ccc1OC | 0.66 | 0.1 | -3% | -0.2 | i | -1.7 | -1.2
Cn1cc(SCC(=O)NCc2ccc3c(c2)OCO3)c2ccccc21 | 0.66 | 0.6 | 1% | -0.4 | i | -0.5 | -0.3
CC(C)NC(=O)C1(C)CCCN1Cc1csc2ccccc12 (stereo not drawn) | x | x | x | 2.9 | i | -0.7 | x
CCCCN1CNC(=S)N(Cc2ccccc2)C1 | 0.66 | 5.1 | -2% | -41 | i | -0.2 | -1.8
O=[N+]([O-])c1ccc(Cl)cc1N1CCCCC1 | 0.68 | 4.3 | 13% | -1.0 | x | 4.1 | 0.1
CCc1ccccc1NC(=S)N1CCNC(=O)C1CC(=O)OC (stereo not drawn) | 0.67 | 3.2 | -7% | -1.1 | i | -0.7 | -3.8
Cc1ccc(C(=O)Nc2c(N)nc(SCC(=O)NCC3CCCO3)[nH]c2=O)cc1 (stereo not drawn) | 0.65 | -0.1 | x | -0.5 | i | -2.4 | 4.7
S=c1[nH]nc([C@@H]2C[C@H]2c2ccccc2)n1-c1ccccc1Cl | 0.69 | 5.9 | 4% | -7.2 | i | 1.1 | 4.4
CCCCc1ccc(/C=C(\C#N)C(N)=S)s1 | 0.61 | 0.7 | -2% | 2.3 | i | -2.2 | x
O=c1c(Cl)c2oc3ccccc3nc-2c2ccccc12 | 0.68 | 4.5 | x | x | x | -11 | -0.9
COc1ccc(C=O)c(-c2c(CCO)sc3ccccc23)c1 | x | x | x | -3.1 | i | 2.8 | x
CCc1nnc(NC(=O)CSc2sc3c(O)cc(=O)[nH]c3c2C#N)s1 | 0.7 | 2.4 | x | -2.2 | i | -35 | -4.0
O=C(NCc1ccco1)C(c1cccs1)N(C(=O)C1COc2ccccc2O1)c1cccc(O)c1 (stereo not drawn) | 0.71 | 1.6 | 16% | x | x | 0.7 | -1.3
CCn1c(SCC(=O)NC(C)(C)C)nnc1-c1ccccn1 | 0.69 | -0.5 | 27% | x | x | -0.9 | 3.0
Nc1ccn([C@@H]2O[C@H](CN=C3NS(=O)(=O)c4ccccc43)[C@@H](O)[C@H]2O)c(=O)n1 | x | x | -6% | -1.4 | i | -3.4 | x
COc1ccc2nc(CNC(=O)C3CCC(=O)N(CCc4ccccc4)C3)[nH]c2c1 (stereo not drawn) | 0.69 | -0.6 | -4% | -3.8 | i | 7.6 | -0.2
CC(C)(C)[C@@H]1COC(=O)[C@H](Cc2ccc(F)cc2)CC/C=C\C[C@@H](CC(=O)N(CCO)Cc2ccccc2)C(=O)N1 | x | 1.0 | x | -50 | i | 3.7 | x
O=c1oc2ccccc2c(NCc2ccc(Cl)cc2)c1[N+](=O)[O-] | 0.66 | 7.2 | 12% | 1.6 | i | 0.1 | -3.9
O=C(Nc1ccc(N2CCOCC2)cc1)c1ccc(Cl)c(S(=O)(=O)N2CCCCC2)c1 | 0.68 | -7.2 | x | -4.1 | i | 1.0 | x
C(=N\N1CCN(C(c2ccccc2)c2ccccc2)CC1)/c1ccc2c(c1)OCO2 | x | x | x | -2.2 | i | 1.9 | 6.4
COc1cccc2[nH]c3ccccc3c(=O)c12 | 0.66 | i | x | x | x | 0.5 | 127*

One compound at a time, from the list above. Order of values: Ecoli growth	UCH37 DUB inh	Vif A3G	MLL AF4-AF9 inh	FGF22 binding	HNF4A DNA FP	RanGTP-Imp inh
`O=C(Nc1ccc(N2CCOCC2)cc1)c1ccc(Cl)c(S(=O)(=O)N2CCCCC2)c1` across the screens: 0.68	-7.2	x	-4.1	i	1.0	x
`CC(C)NC(=O)C1(C)CCCN1Cc1csc2ccccc12` (stereo not drawn) across the screens: x	x	x	2.9	i	-0.7	x
`C(=N\N1CCN(C(c2ccccc2)c2ccccc2)CC1)/c1ccc2c(c1)OCO2` across the screens: x	x	x	-2.2	i	1.9	6.4
`O=[N+]([O-])c1ccc(Cl)cc1N1CCCCC1` across the screens: 0.68	4.3	13%	-1.0	x	4.1	0.1

(next part)
SMILES | Ecoli growth | UCH37 DUB inh | Vif A3G | MLL AF4-AF9 inh | FGF22 binding | HNF4A DNA FP | RanGTP-Imp inh
Cc1nn(-c2ccccc2)c(Cl)c1/C=N/Nc1nnc(C)c(=O)[nH]1 | x | x | 3% | -0.7 | i | -0.2 | -1.0
C=C(C)C1CC=C(CN2CCC(C(=O)OCC)CC2)CC1 (stereo not drawn) | 0.69 | 2.0 | 5% | x | x | 0.1 | u
CC1CC(NS(=O)(=O)c2cccs2)CC(C)(C)C1 (stereo not drawn) | 0.7 | 3.5 | 4% | -48 | i | 0.2 | 3.3
COCCN(CCOC)C(=O)c1cc2sc3ccccc3c2s1 | 0.72 | -0.8 | u | 3.7 | i | 2.3 | 0.4
COc1ccc(C(CNC(=O)COc2ccccc2C)N2CCOCC2)cc1 (stereo not drawn) | 0.68 | -2.5 | 4% | -1.1 | i | -0.1 | 0.2
O=C(NC(Cc1ccccc1)C(=O)O)/C(=C/c1ccc(F)cc1)NC(=O)c1ccccc1 (stereo not drawn) | 0.72 | 2.8 | 15% | 1.6 | i | -3.9 | -1.3
N#Cc1c(NC(=O)CSC2=NCCS2)sc2c1CCCC2 | 0.68 | 0.6 | 15% | x | x | 3.2 | -5.8
Cc1ccc(C)c(NC(=O)C2CCCN(S(=O)(=O)c3ccc4[nH]c(=O)ccc4c3)C2)c1 (stereo not drawn) | 0.73 | -12 | x | 0.0 | i | 7.7 | -3.5
O=C(CN1C(=O)C2C3C=CC(C3)C2C1=O)NCc1ccc2c(c1)OCO2 (stereo not drawn) | 0.74 | 1.4 | u | x | x | 0.8 | 4.2
COc1ccc(NC(=O)Nc2ccccc2OC)cc1 | 0.71 | -1.9 | 13% | x | x | 1.2 | -0.4
CCC(Sc1nc2sc(C(=O)OC)c(C)c2c(=O)n1N)C(=O)NCC1CCCO1 (stereo not drawn) | 0.74 | 3.8 | -1%&7% | x | x | 2.5 | -5.0
CN1C(=O)c2cccc(NCCCCCCN3C(=O)c4ccccc4C3=O)c2C1=O | 0.8 | -55 | 5% | x | x | 1.0 | -55
O=C(OCc1nc2ccccc2c(=O)[nH]1)c1cccs1 | 0.71 | -4.1 | 16% | x | x | 0.1 | -4.3
Cc1ccc(N(CC(=O)NC2CCCC2)C(=O)CCC(=O)Nc2ccccn2)cc1 | 0.65 | 1.2 | -10% | -4.1 | i | 3.5 | 2.1
Cc1cc(CNC(=O)COc2ccc(C#N)cc2)c2ccccc2n1 | 0.7 | 0.3 | 3% | -1.6 | i | 1.2 | 1.6
CCCCN(CCCC)CC(O)CN1C(=O)NC(C)(C)C1=O (stereo not drawn) | 0.69 | -1.5 | 0% | x | x | -1.0 | 4.6
COc1ccccc1C(=O)NC(=O)COC(=O)CCOc1ccccc1C | 0.69 | 0.0 | 3% | -8.7 | i | 0.4 | 0.1
CC(c1nnc(SCC(=O)c2c(N)n(C3CC3)c(=O)[nH]c2=O)n1-c1ccc(F)cc1)N(C)C (stereo not drawn) | x | x | 0% | -1.8 | i | -0.1 | x
CCn1nnnc1SCC(=O)Nc1ccc2c(c1)OCCO2 | 0.73 | 3.7 | 1% | x | x | 0.4 | 4.4
CN=C1SC(CC(=O)Nc2ccc(F)cc2F)C(=O)N1/N=C/c1ccc(OC(F)F)c(OC)c1 (stereo not drawn) | x | x | 8% | -2.5 | i | 1.0 | -1.7
O=C(Nc1cccc(C(F)(F)F)c1)c1csc([C@H]2C[C@H](O)[C@@H](CO)O2)n1 | x | x | x | -0.7 | i | 0.6 | x
Cn1cc(C(=O)NCc2ccc(Cl)cc2)c(=O)c2cc(S(=O)(=O)N3CCOCC3)ccc21 | 0.68 | 3.9 | x | -4.3 | i | 3.6 | 0.7
Cc1cc(C)nc(-n2nc(C)c(Br)c2Nc2ccc(Br)cc2)n1 | 0.72 | 2.0 | 26% | x | x | 1.1 | 2.1
CC(C)CN(C(=O)c1cccc(S(=O)(=O)N2CCCCC2)c1)C1CCS(=O)(=O)C1 (stereo not drawn) | 0.64 | 2.5 | -5% | 0.6 | i | 0.5 | 4.3
O=C(CS(=O)(=O)c1ccccc1)NCc1ccccc1 | 0.72 | 0.7 | -1% | -0.1 | i | -0.5 | -0.1
SMILES | Ecoli growth | UCH37 DUB inh | Vif A3G | MLL AF4-AF9 inh | FGF22 binding | HNF4A DNA FP | RanGTP-Imp inh
CCOC(=O)C1CCN(c2ccc([N+](=O)[O-])c(C(C)=O)c2)CC1 | 0.69 | 12 | -2% | 1.2 | i | 2.3 | 0.5
CCC(=O)N1CCN=C1SCc1ccc(F)cc1 | 0.73 | 3.1 | 8% | -3.0 | i | 5.8 | x
COc1ccc(C(=O)NCCCn2ccnc2)cc1[N+](=O)[O-] | 0.66 | 2.4 | x | 3.6 | i | 0.4 | 0.3
CCOC(=O)c1c(CCl)nc2ccccc2c1C | 0.67 | 1.4 | 18% | 2.9 | i | 0.8 | -0.5
CCOc1ccc(NC(=O)CN2C(=O)NC(C)(c3ccc4c(c3)OCCCO4)C2=O)cc1OCC (stereo not drawn) | x | x | x | 13 | i | 2.1 | x
O=[N+]([O-])c1ccccc1NC(=S)N/N=C/c1ccc(O)c(O)c1 | x | x | 4.1µM* | 4.6 | i | -7.4 | -1.6
CN(C)S(=O)(=O)N1CCCN(S(=O)(=O)N(C)C)CC1 | 0.72 | 1.1 | -4% | x | x | 3.9 | 3.6
CCN1CCCC1CN(Cc1cc2cc(C)cc(C)c2[nH]c1=O)C(=O)Nc1ccccc1OC (stereo not drawn) | 0.76 | -3.0 | x | x | x | x | 3.4
Cc1ccc(-n2c(SCC(=O)Nc3ccc4c(c3)OCCO4)nnc2-c2ccco2)cc1 | 0.68 | 1.1 | -3%&-5% | x | x | 2.0 | -4.9
Cc1csc(=Nc2cccnc2)n1Cc1ccco1 | 0.72 | 6.0 | 2% | 3.4 | i | 7.1 | 3.0
O=C1[C@@H]2CSCN2C(=O)CN1CCc1cccc(F)c1 | 0.63 | -0.4 | 70% | x | x | -2.1 | -1.4
CC(C)C(NC(=O)CSc1ccc(Cl)cc1)C(C)C | 0.71 | 4.8 | 9% | 0.8 | i | -0.4 | -1.6
Cc1ccccc1Cn1ccc(=NCc2ccccc2)cc1 | 0.65 | 1.2 | 13% | 0.1 | i | x | 4.1
CCCN1C(=O)c2ccc(C(=O)Nc3cc(C)ccc3O)cc2C1=O | 0.68 | 0.8 | x | 3.9 | i | 1.4 | -3.5
COc1cc(S(=O)(=O)Nc2cccc(C(=O)O)c2)c(OC)cc1Cl | 0.71 | 2.6 | 20% | x | x | 0.1 | 9.1
COc1cccc(-c2cc(C(=O)NCC3CCCO3)c3cc(C)cc(C)c3n2)c1 (stereo not drawn) | 0.71 | -14 | -6% | -4.1 | i | -1.8 | -4.0
